Vaccinia inh = Vaccinia orthopox stage-specific inhibition; activity change (mCherry), % (test concentration not listed); Vaccinia-infected cells, mCherry/Venus stage reporter fluorescence; stronger effect = lower value; some inactives read as strong as hits; 89,000 compounds, 0.01% hits; AID 1053133;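 active means mCherry past -33% and 40 or more points under the early reporter, replicates agreeing; inconclusive means past -33% without that gap or agreement; tested in A549 cells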;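 further: scaled between vehicle wells and reference inhibitor wells; 23 nL library stock went into each well; one replicate is shown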
Vaccinia inh Venus = further read-out of Vaccinia inh, marked with its call; activity change (Venus), %; measured here: Venus reporter, other viral stage;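 negative = less Venus signal; first of two replicates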
* = called active by the depositor; ? = inconclusive; · = not tested or not shown; & = joins results of further samples. Some of the compounds tested; count on the stated rates, not on these rows.

SMILES	Vaccinia inh	Vaccinia inh Venus
C[C@H]1CN([C@@H](C)CO)C(=O)c2cccc(NS(=O)(=O)c3cn(C)cn3)c2O[C@@H]1CN(C)C(=O)Nc1cccc2ccccc12	34.9	18.9
CNC[C@H]1OCCCC[C@H](C)Oc2ccc(NS(=O)(=O)c3cccs3)cc2C(=O)N([C@H](C)CO)C[C@@H]1C	13.5	8.2
O=C(C[C@H]1CC[C@H]2[C@@H](COC[C@H](O)CN2Cc2cccc(-c3ccncc3)c2)O1)N1CCN(c2ccccc2)CC1	?	·
C[C@@H]1CN([C@@H](C)CO)C(=O)c2cc(NC(=O)C3CCCCC3)ccc2O[C@@H]1CN(C)Cc1ccc(C(=O)O)cc1	11.3	7.8
Cc1noc(C)c1NC(=O)N(C)C[C@@H]1Oc2c(NC(=O)c3nc4ccccc4s3)cccc2C(=O)N([C@H](C)CO)C[C@@H]1C	3.6	-1.0
C[C@H]1CN([C@@H](C)CO)C(=O)c2cc(NC(=O)Nc3cccc4ccccc34)ccc2O[C@@H]1CN(C)S(=O)(=O)c1cccs1	28.5	22.0
C[C@H](CO)N1C[C@H](C)[C@@H](CN(C)S(=O)(=O)c2cn(C)cn2)OCCCC[C@H](C)Oc2ccc(NC(=O)c3ccccc3)cc2C1=O	26.0	11.8
O=C(C[C@H]1CC[C@@H]2[C@H](COC[C@H](O)CN2Cc2ccc(Oc3ccccc3)cc2)O1)N1CCc2ccccc2C1	?	·
O=C(Nc1ccc(F)cc1)N1CC(=O)N2[C@H](C1)[C@H](c1ccc(C#Cc3ccc(F)cc3)cc1)[C@@H]2CO	?	·
C[C@H]1CCCCO[C@H](CN(C)C(=O)Nc2ccc(C(F)(F)F)cc2)[C@@H](C)CN([C@@H](C)CO)C(=O)c2cc(NC(=O)C3CCCCC3)ccc2O1	-27.5	-15.0
Cc1ccccc1S(=O)(=O)N1CCCCN2[C@H](CO)[C@@H](c3ccc(-c4ccccc4)cc3)[C@@H]2C1	17.9	4.8
O=C(c1ccncc1)N1C[C@H]2[C@@H](c3ccccc31)[C@@H](CO)N2C(=O)c1ccccc1F	-3.0	2.5
C[C@H](CO)N1C[C@H](C)[C@@H](CN(C)Cc2ccc3c(c2)OCO3)Oc2ccc(NS(=O)(=O)c3ccccc3)cc2CC1=O	-32.4	-18.1
CCCc1cn(CC[C@H]2CC[C@@H](NC(=O)C3CCCCC3)[C@H](CO)O2)nn1	14.1	14.9
CCCNC(=O)Nc1ccc2c(c1)C(=O)N(C)C[C@@H](OC)[C@H](C)CN(Cc1ccc(-c3ccccn3)cc1)[C@@H](C)CO2	-34.3	-20.4
C[C@@H]1CCCCO[C@H](CN(C)S(=O)(=O)c2cccs2)[C@H](C)CN([C@@H](C)CO)C(=O)c2cc(NS(=O)(=O)c3ccccc3)ccc2O1	-16.9	-16.3
C[C@@H]1CN([C@H](C)CO)C(=O)c2cc(NC(=O)Nc3ccc(C(F)(F)F)cc3)ccc2O[C@@H](C)CCCCO[C@H]1CN(C)Cc1ccccc1	?	·
C[C@@H]1CN([C@@H](C)CO)C(=O)c2cc(C#CCN(C)C)cnc2O[C@@H]1CN(C)Cc1cccc(F)c1	-9.9	6.6
Fc1cccc(-c2ccc(C3[C@H]4CNC[C@@H]3N4Cc3ccccc3F)cc2)c1 (stereo partly specified)	-28.1	-11.4
COc1ccc2c3c([nH]c2c1)[C@H](CO)N(C)CC31CCN(S(=O)(=O)c2ccc(C)cc2)CC1	4.6	6.9

Entries shown so far containing fluorine (6):
SMILES	Vaccinia inh	Vaccinia inh Venus
O=C(Nc1ccc(F)cc1)N1CC(=O)N2[C@H](C1)[C@H](c1ccc(C#Cc3ccc(F)cc3)cc1)[C@@H]2CO	?	·
C[C@H]1CCCCO[C@H](CN(C)C(=O)Nc2ccc(C(F)(F)F)cc2)[C@@H](C)CN([C@@H](C)CO)C(=O)c2cc(NC(=O)C3CCCCC3)ccc2O1	-27.5	-15.0
O=C(c1ccncc1)N1C[C@H]2[C@@H](c3ccccc31)[C@@H](CO)N2C(=O)c1ccccc1F	-3.0	2.5
C[C@@H]1CN([C@H](C)CO)C(=O)c2cc(NC(=O)Nc3ccc(C(F)(F)F)cc3)ccc2O[C@@H](C)CCCCO[C@H]1CN(C)Cc1ccccc1	?	·
C[C@@H]1CN([C@@H](C)CO)C(=O)c2cc(C#CCN(C)C)cnc2O[C@@H]1CN(C)Cc1cccc(F)c1	-9.9	6.6
Fc1cccc(-c2ccc(C3[C@H]4CNC[C@@H]3N4Cc3ccccc3F)cc2)c1 (stereo partly specified)	-28.1	-11.4

Further structures:
SMILES	Vaccinia inh	Vaccinia inh Venus
COc1ccc(NC(=O)Nc2ccc3c(c2)CC(=O)N([C@H](C)CO)C[C@H](C)[C@H](CN(C)Cc2ccccc2)O3)cc1	-26.4	-12.7
CCC(=O)Nc1ccc2c(c1)OC[C@@H](C)N(C(=O)Cc1cccnc1)C[C@H](C)[C@H](OC)CN(C)C2=O	10.7	8.7
C[C@@H]1CN([C@@H](C)CO)C(=O)c2cc(-c3ccc(F)cc3)cnc2O[C@H]1CN(C)Cc1cccnc1	-15.0	-13.0
C[C@H](CO)N1C[C@H](C)[C@H](CN(C)C(=O)CC2CC2)Oc2cc(C#CCN(C)C)ccc2S1(=O)=O	-5.6	12.2
N#C[C@H]1[C@H](c2ccccc2)[C@@H](CO)N1C(=O)CN1CCOCC1	10.2	8.1
COc1ccc(S(=O)(=O)N(C)C[C@H]2OCc3cnnn3CCCC(=O)N([C@H](C)CO)C[C@H]2C)cc1	-0.5&0.8	-0.6&0.9
COCC#Cc1cnc2c(c1)C(=O)N([C@@H](C)CO)C[C@@H](C)[C@H](CN(C)C(=O)C1CCOCC1)O2	16.9	1.7
Cc1noc(C)c1NC(=O)Nc1ccc2c(c1)C(=O)N([C@@H](C)CO)C[C@H](C)[C@@H](CN(C)S(=O)(=O)c1ccc(F)cc1)OCCCC[C@H](C)O2	19.0	10.5
O=C(Nc1ccc2c(c1)[C@H]1C[C@@H](CC(=O)N3CCOCC3)O[C@@H](CO)[C@H]1O2)c1cccnc1	8.0	1.4
COc1ccc(NC(=O)N(C)C[C@H]2OCCCC[C@@H](C)Oc3ccc(NS(=O)(=O)c4ccc(Cl)cc4)cc3C(=O)N([C@H](C)CO)C[C@H]2C)cc1	-21.0	-16.3
Cc1ccc(S(=O)(=O)N(C)C[C@H]2Oc3ccc(NC(=O)c4ccncc4)cc3C(=O)N([C@H](C)CO)C[C@@H]2C)cc1	4.0	0.8
CC(C)NC(=O)Nc1cccc2c1O[C@@H](CN(C)Cc1ccc(-c3ccccc3)cc1)[C@@H](C)CN([C@@H](C)CO)C2=O	15.6	1.6
Cc1noc(C)c1S(=O)(=O)Nc1ccc2c(c1)CC(=O)N([C@@H](C)CO)C[C@@H](C)[C@@H](CN(C)C(=O)Nc1ccc(C(F)(F)F)cc1)O2	3.8	9.9
C[C@@H]1CN([C@@H](C)CO)C(=O)c2cc(/C=C/c3ccccc3)cnc2O[C@@H]1CN(C)C(=O)C1CCC1	-19.4	-17.0
CC(=O)N(C)C[C@H]1Oc2cc(C#Cc3ccccc3)ccc2S(=O)(=O)N([C@@H](C)CO)C[C@H]1C	?	·
C[C@@H]1CN([C@H](C)CO)C(=O)c2cccc(NC(=O)Nc3ccc(C(F)(F)F)cc3)c2O[C@@H]1CN(C)C(=O)NC1CCCCC1	?	·
CC(=O)N(C)C[C@H]1Oc2cc(C#C[C@@H](C)O)ccc2S(=O)(=O)N([C@@H](C)CO)C[C@H]1C	10.2	13.1
C[C@@H]1CN([C@@H](C)CO)C(=O)c2cc(NC(=O)c3ccccc3)ccc2O[C@@H](C)CCCCO[C@@H]1CN(C)C(=O)CCCN(C)C	7.5	6.7
C[C@@H]1CCCCO[C@H](CN(C)S(=O)(=O)c2cccs2)[C@@H](C)CN([C@@H](C)CO)C(=O)c2cc(NS(=O)(=O)c3cn(C)cn3)ccc2O1	9.4	5.2
COc1ccc(S(=O)(=O)Nc2ccc3c(c2)CC(=O)N([C@@H](C)CO)C[C@H](C)[C@@H](CN(C)S(=O)(=O)c2c(C)noc2C)O3)cc1	13.9	9.0

Next section (2 carried over from the part before).
SMILES	Vaccinia inh	Vaccinia inh Venus
C[C@@H]1CCCCO[C@H](CN(C)S(=O)(=O)c2cccs2)[C@@H](C)CN([C@@H](C)CO)C(=O)c2cc(NS(=O)(=O)c3cn(C)cn3)ccc2O1	9.4	5.2
COc1ccc(S(=O)(=O)Nc2ccc3c(c2)CC(=O)N([C@@H](C)CO)C[C@H](C)[C@@H](CN(C)S(=O)(=O)c2c(C)noc2C)O3)cc1	13.9	9.0
C[C@@H]1CN([C@@H](C)CO)C(=O)Cc2cc(NC(=O)Cc3ccccc3)ccc2O[C@H]1CN(C)Cc1ccc(Cl)c(Cl)c1	?	·
C/C=C/c1ccc([C@H]2[C@@H](CO)N(CC3CCOCC3)C23CN(S(=O)(=O)CC)C3)cc1	1.3	7.8
C[C@@H]1CN([C@H](C)CO)C(=O)c2cc(NS(=O)(=O)c3cn(C)cn3)ccc2O[C@@H](C)CCCCO[C@H]1CN(C)C(=O)Nc1ccc2c(c1)OCO2	13.3	-1.9
C[C@@H]1CN([C@H](C)CO)S(=O)(=O)c2ccc(C3=CCCCC3)cc2O[C@H]1CN(C)C(=O)C1CCC1	-15.3	-13.1
C[C@@H]1CN([C@@H](C)CO)C(=O)c2cc(N(C)C)ccc2O[C@@H](C)CCCCO[C@@H]1CN(C)C(=O)Nc1ccc(F)cc1	-7.4	-10.3
C[C@H](CO)N1C[C@H](C)[C@H](CN(C)C(=O)Nc2ccc3c(c2)OCO3)Oc2ccc(NC(=O)Cc3ccccc3)cc2C1=O	17.0	4.3
C[C@@H](NC(=O)C[C@H]1C[C@@H]2c3cc(NC(=O)c4cccnc4)ccc3O[C@@H]2[C@@H](CO)O1)c1ccccc1	-0.2	5.2
CO[C@@H]1CN(C)C(=O)c2cc(NS(=O)(=O)CC(F)(F)F)ccc2OC[C@H](C)N(CCC(F)(F)F)C[C@@H]1C	6.7	5.5
CC(C)NC(=O)N(C)C[C@@H]1Oc2ccc(NC(=O)Cn3cnnn3)cc2CC(=O)N([C@@H](C)CO)C[C@@H]1C	7.6	4.3
COCC#Cc1ccc2c(c1)O[C@@H](CN(C)S(C)(=O)=O)[C@H](C)CN([C@H](C)CO)S2(=O)=O	4.7	8.8
COc1ccc(NC(=O)Nc2cccc3c2O[C@H](CN(C)CC2CCCCC2)[C@@H](C)CN([C@@H](C)CO)C3=O)cc1	-12.2	-9.2
COc1cccc(-c2ccc3c(c2)O[C@@H](CN(C)C(C)=O)[C@H](C)CN([C@@H](C)CO)S3(=O)=O)c1	-2.3	-1.8
COc1cccc(NC(=O)C[C@@H]2CC[C@@H]3[C@H](COc4ccc(NC(=O)C5CCCCC5)cc4C(=O)N3C)O2)c1	-1.6	-3.3
O=C(c1ccc(F)cc1)N1CCCCN2[C@H](CO)[C@@H](c3ccc(C#CC4(O)CCCC4)cc3)[C@@H]2C1	3.7	-6.9
O=C(C[C@H]1CC[C@@H]2[C@H](COC[C@H](O)CN2C(=O)Nc2ccc(C(F)(F)F)cc2)O1)NCCc1ccncc1	-9.0	-2.6
O=C(Cc1ccncc1)N1CCCCN2[C@H](CO)[C@H](c3ccc(C#Cc4ccccc4F)cc3)[C@H]2C1	?	·
CNC[C@H]1Oc2ccc(NS(C)(=O)=O)cc2C(=O)N([C@@H](C)CO)C[C@@H]1C	6.3	12.4
CCCNC(=O)Nc1ccc2c(c1)OC[C@H](C)N(CC1CCCC1)C[C@@H](C)[C@H](OC)CN(C)C2=O	-29.0	-23.3
O=C(N[C@@H]1CC[C@@H](CC(=O)N2CCN(c3ccccc3)CC2)O[C@H]1CO)c1ccccc1	-3.2	-2.1
CNC(=O)C[C@@H]1CC[C@H]2[C@@H](COC[C@H](O)CN2C(=O)Nc2ccc3c(c2)OCO3)O1	0.5	-4.9
C[C@H]1CN([C@@H](C)CO)C(=O)c2cccc(NC(=O)CCCCCC(=O)Nc3ccccc3N)c2O[C@H]1CN(C)Cc1ccc(C(F)(F)F)cc1	?	·
COc1ccc(S(=O)(=O)Nc2ccc3c(c2)C(=O)N([C@@H](C)CO)C[C@H](C)[C@H](CN(C)C(=O)NC2CCCCC2)O3)cc1	3.9	-4.4
C[C@@H]1CN([C@@H](C)CO)C(=O)c2cccc(NC(=O)C3CCCCC3)c2O[C@H]1CN(C)Cc1ccc(Oc2ccccc2)cc1	?	·
C[C@@H]1CN([C@H](C)CO)C(=O)c2cccc(NC(=O)C3CCOCC3)c2O[C@@H]1CN(C)Cc1ccc(C(=O)Nc2ccccc2N)cc1	-2.1	-1.4
C[C@@H]1CN([C@@H](C)CO)C(=O)c2cc(NC(=O)CCC(F)(F)F)ccc2O[C@@H](C)CCCCO[C@H]1CN(C)Cc1ccncc1	5.8	4.5
CCCC[C@]12CCCC(=O)N1CCc1c2[nH]c2ccccc12	14.7	12.2
CCc1cnc(N2[C@@H](C#N)[C@@H](c3ccccc3)[C@@H]2CO)s1	-6.9	4.0
C[C@H]1CN([C@@H](C)CO)C(=O)c2cc(NC(=O)Nc3ccc(C(F)(F)F)cc3)ccc2O[C@@H]1CN(C)Cc1ccc(C(=O)Nc2ccccc2N)cc1	6.8	2.6
CCC(=O)Nc1ccc2c(c1)C(=O)N(C)C[C@H](OC)[C@H](C)CN(C(=O)C1CC1)[C@H](C)CO2	0.9	-6.2
CC(C)C#Cc1ccc2c(c1)O[C@H](CN(C)Cc1cncnc1)[C@@H](C)CN([C@@H](C)CO)S2(=O)=O	?	·
O=C(c1ccc(F)cc1)N1CCCCN2[C@@H](CO)[C@H](c3ccc(C#CC4(O)CCCC4)cc3)[C@@H]2C1	13.7	5.0
CCCNC(=O)N1[C@@H]2CNC[C@H]1C2c1ccc(-c2cccc(C)c2)cc1 (stereo partly specified)	10.3&16.5	11.2&20.5

Bioassay records (PubChem BioAssay)
